# Bioassay records deposited in PubChem BioAssay by Southern Research Institute.
# Mtb H37Rv = Mycobacterium tuberculosis H37Rv growth inhibition, cell based, confirmatory dose response (AID 1949) | most inactive calls were filed without a number and no value below 0 was filed | inhibition, % at 10 µg/mL; hits with a dose series show IC50 in µg/mL | actives 1.6% (n = 100,000);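 active means confirmed in a dose series; inconclusive means about 50% or more but not retested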;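 further: bacteria grown 7 days with compound before Alamar blue readout; 0% = untreated bacteria and 100% = reference antibiotic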
# An asterisk follows results filed as active; i = inactive; ? = inconclusive.
entry	mol	Mtb H37Rv
1	CCOc1ccc(NC(=O)CN(c2cc(Cl)c(Cl)cc2Cl)S(C)(=O)=O)cc1	5%
2	CCOc1ccc(C(=O)Nc2cccc(C)c2C)cc1[N+](=O)[O-]	1%
3	CCOc1ccc(NC(=O)CSc2nnc(Cc3ccccc3)n2-c2cccc(C)c2)cc1	i
4	O=C(Nc1ccccc1NC(=O)C1CC1c1ccccc1)C1CC1c1ccccc1 (stereo not given)	i
5	CCN(CC)C(=O)/C(=C\c1ccc2c(c1)OCO2)NC(=O)c1ccccc1Br	i
6	COCCCNCCOc1ccc(C(C)(C)C)cc1C	i
7	Cc1nc(C)c(NC(=O)Nc2ccc(F)cc2)cc1NC(=O)Nc1ccc(F)cc1	i
8	COc1ccccc1CCNC(=O)c1ccoc1C	i
9	CCOc1ccc(C2C(C#N)=C(SC)NC3=C2C(=O)CCC3)cc1 (stereo not given)	i
10	CS(=O)(=O)N(Cc1ccccc1)c1ccc(C(=O)Nc2ccccc2C(N)=O)cc1	i
11	CCOC(=O)c1c(NC(=O)c2cccc(OC)c2)sc(C(=O)OC)c1C	i
12	COc1cccc(C(=O)NC(=S)N2CCN(c3ccc(C(F)(F)F)cc3[N+](=O)[O-])CC2)c1	41%

# (list continues)
entry	mol	Mtb H37Rv
13	CCC(C)NC(=O)c1ccc(N(Cc2ccccc2C)S(C)(=O)=O)cc1 (stereo not given)	i
14	O=C(NC(=S)NCc1ccccc1)C1CC1	i
15	CCc1nnc(NS(=O)(=O)c2ccc(C)cc2)s1	i
16	O=C(Nc1ccc(N2CCCCC2)cc1)c1cncc(Br)c1	3%
17	Clc1cccc(Cl)c1CNC1CN2CCC1CC2 (stereo not given)	i
18	CCOc1ccccc1Nc1ncnc2ccccc12	i
19	O=C(CS(=O)(=O)Cc1ccccc1)Nc1cccnc1	1%
20	CCCC(=O)NC(=S)Nc1ccccc1C(C)CC (stereo not given)	1%
21	COc1cccc2c(C=O)ccc(N(C)C)c12	i
22	COc1ccc(NC(=S)NNC(=O)c2cccnc2)cc1OC	i
23	O=C(Nc1ccccc1F)c1sc2ccccc2c1Cl	2%
24	CC(NS(=O)(=O)c1ccc(Cl)cc1)C(=O)Nc1c(F)cccc1F (stereo not given)	i

# Given with each value named: four of the compounds above
15	CCc1nnc(NS(=O)(=O)c2ccc(C)cc2)s1
  Mtb H37Rv = i
16	O=C(Nc1ccc(N2CCCCC2)cc1)c1cncc(Br)c1
  Mtb H37Rv = 3%
17	Clc1cccc(Cl)c1CNC1CN2CCC1CC2 (stereo not given)
  Mtb H37Rv = i
18	CCOc1ccccc1Nc1ncnc2ccccc12
  Mtb H37Rv = i

# Other results.
entry	mol	Mtb H37Rv
25	COc1ccc(NC(=O)Nc2sc(NS(=O)(=O)c3ccccc3)nc2C)cc1	i
26	COC(=O)c1c(C(=O)OC)c(C)n(Cc2cccnc2)c1C	i
27	c1ccc(CCn2nnc3ccccc32)cc1	i
28	O=C1C(=O)N(Cc2cccc(Br)c2)c2ccccc21	i
29	Cn1c(Cc2cccs2)nnc1SCc1nc2ccccc2[nH]1	i
30	O=C(CN(c1cccc([N+](=O)[O-])c1)S(=O)(=O)c1ccccc1)Nc1cccc(F)c1	i
31	O=C(CCC1CCCC1)NCc1ccc2c(c1)OCO2	i
32	Cc1[nH]c2ccccc2c1CCNC(=O)Cn1cnc([N+](=O)[O-])n1	i
33	COc1ccc(-c2nc(NC(=O)c3cccc(F)c3)sc2C)cc1OC	0%
34	CCCc1nc2sc3c(c2c(=O)n1N)CCC3	i
35	CS(=O)(=O)N(CC(=O)N1CCCCC1)c1cccc(Br)c1	i
36	OCCN1CCN(C(=S)Nc2ccc(F)cc2)CC1	i

# Next section
entry	mol	Mtb H37Rv
37	COc1cc2[nH]c(=S)n(CCSc3ccc(Cl)cc3)c(=O)c2cc1OC	i
38	Cc1cccc(N2C(=O)CC(SCc3nc4ccccc4[nH]3)C2=O)c1 (stereo not given)	i
39	O=C(CN1C(=O)c2ccccc2S1(=O)=O)Nc1nc(-c2ccccc2)cs1	2%
40	CCn1c(=N)n(CC(=O)c2ccc(Cl)cc2)c2ccccc21	i
41	Cc1cc(C)c(C(=O)c2ccc(C(=O)N(C)C)cc2)c(C)c1	i
42	CC1(C)Cn2c(nc(=O)c(Br)c2N)S1	i
43	Cc1cc(=O)[nH]c(SCC(=O)Nc2ccnc3ccccc23)n1	i
44	O=C(c1ccc(CN2CCc3ccccc3C2)cc1)N1CCCCCC1	i
45	COc1ccc(N2CCN(CC(=O)N3CCC(C(N)=O)CC3)CC2)cc1	i
46	COc1ccc(Br)cc1C(=O)NC(=S)Nc1ccc(Cl)cc1C(=O)O	i
47	CCn1c2ccccc2c2cc(NC(=O)c3cccc(OC)c3OC)ccc21	i
48	COc1ccccc1CCNC(=O)c1csc2ccccc12	6%

# The final 4 compounds of the section before open the next one.
entry	mol	Mtb H37Rv
45	COc1ccc(N2CCN(CC(=O)N3CCC(C(N)=O)CC3)CC2)cc1	i
46	COc1ccc(Br)cc1C(=O)NC(=S)Nc1ccc(Cl)cc1C(=O)O	i
47	CCn1c2ccccc2c2cc(NC(=O)c3cccc(OC)c3OC)ccc21	i
48	COc1ccccc1CCNC(=O)c1csc2ccccc12	6%
49	COc1cccc(NC(=O)Cc2ccc(C)cc2)c1	2%
50	Cc1ccc(-c2nc3cc(NC(=O)c4ccccc4F)ccc3o2)cc1C	i
51	CC1(C)Cc2nc3nc(SCC(=O)Nc4ccccc4)nc(N)c3cc2CO1	i
52	COc1ccc(NC(=O)CSCc2ccc(Cl)cc2)cc1OC	i
53	N#Cc1ccccc1NC(=S)NC(=O)c1ccc(Br)cc1	i
54	COC(=O)Cn1c(=O)oc2ccc(Cl)cc21	i
55	Cc1nc2ccccc2c(=O)n1Cc1c(F)cccc1Cl	i
56	CCOc1ccccc1OCC(=O)Nc1cc(Cl)ccc1OC	17%
57	COc1ccccc1-n1c(SCC(=O)Nc2ccccc2C)nc(O)cc1=O	i
58	Cc1ccc(SCCNC(=S)Nc2ccc(Cl)cc2C)cc1	12%
59	Cc1ccc(N(CC(=O)N2CCN(Cc3ccccc3)CC2)S(C)(=O)=O)cc1C	i
60	Cc1cc(OCCN2CCOCC2)cc(C(C)C)c1	i

# (next part)
entry	mol	Mtb H37Rv
61	Cc1ccc(C(=O)c2cccc(N)c2)cc1C	i
62	Cc1ccc(C(=O)O)cc1S(=O)(=O)NC(C)C	i
63	Nc1nc(-c2ccccc2)cc(N2CCCCC2)n1	?
64	CCOC(=O)CCC(=O)Nc1cccc(Cl)c1Cl	i
65	COc1ccc(-c2nnc(SCC(=O)NCc3ccccc3)o2)cc1	i
66	Cc1cccc(C(=O)NC(C)C2CC3CCC2C3)c1 (stereo not given)	i
67	CC1CC(C)CN(CCOc2ccc(Cl)cc2Br)C1 (stereo not given)	i
68	COc1ccc2c(=O)c(N3C(=O)c4ccccc4C3=O)c(C)oc2c1	i
69	Oc1ccc(-c2nnc(N3CCOCC3)c3ccccc23)cc1	i
70	CCn1nc(C)c(NC(=S)NC2CCCCC2)c1C	4%
71	O=C(O)COc1ccccc1C(c1c[nH]c2ccccc12)c1c[nH]c2ccccc12	i
72	Cc1cccc(NC(=O)c2ccc(CN(c3ccccc3)S(C)(=O)=O)cc2)c1	i

# The listing continues.
entry	mol	Mtb H37Rv
73	CCC(C)(C)C(=O)Nc1nc2ccc(S(C)(=O)=O)cc2s1	11%
74	COC(=O)CNc1ccc(Br)cc1	0%
75	CC(=O)c1cccc(NC(=S)Nc2ccc(NS(=O)(=O)c3ccc(C)cc3)cc2)c1	i
76	O=C1c2cccc3cccc(c23)C(=O)N1OS(=O)(=O)c1cc(Cl)ccc1Cl	i
77	COC(=O)C1=CN(CC2CCCO2)C=C(C(=O)OC)C1c1ccc(C(F)(F)F)cc1 (stereo not given)	i
78	Cc1cc(Cl)ccc1OC(C)C(=O)NC1CCCCCC1 (stereo not given)	i
79	N#Cc1cc2c(nc1SCC(=O)NCc1ccc3c(c1)OCO3)N1CCC2CC1	i
80	O=C(Nc1ccc2ccccc2c1)c1cnccn1	14%
81	O=C(CNC(=O)c1cccs1)OCc1ccc(S(=O)(=O)c2ccccc2)cc1	i
82	O=C(Nc1ccc(N2CCCC2=O)cc1)c1ncn[nH]1	5%
83	Cc1ccc(NC(=O)Cc2cccs2)cc1C	i
84	Cc1cccc(-c2nc3ccccc3n2C)c1	i

# Additional results
entry	mol	Mtb H37Rv
85	CCOc1cc(CNCCc2c[nH]c3ccccc23)cc(Cl)c1OCC(N)=O	1%
86	Cc1cc(C)nc(SCC(=O)N2CCc3ccccc3C2)n1	i
87	CSCCC(C(=O)Nc1ccc(Cl)cc1)N1C(=O)c2ccccc2C1=O (stereo not given)	1%
88	CCc1c(C)sc(NC(=O)COc2ccccc2)c1C(=O)N1CCOCC1	i
89	O=C(COc1cccc([N+](=O)[O-])c1)Nc1cccc(-c2nnc(-c3ccccc3)o2)c1	i
90	Nc1nc(SCCCC(=O)NC2CCCCC2)nc2sc3c(c12)CCCC3	0%
91	Cc1ccc(OCc2nnc(SCC(=O)Nc3nc(-c4ccccc4)cs3)o2)cc1	5%
92	O=C(CC1Nc2ccccc2NC1=O)Nc1ccc(C(F)(F)F)cc1 (stereo not given)	i
93	Cc1cccc(C(=O)NCc2nnc(SCC(=O)Nc3cc(Cl)cc(Cl)c3)n2C)c1	i
94	COc1ccc(COc2ccc3c(oc(=O)c4cc(OC)ccc43)c2C)cc1	i
95	COc1cc(S(=O)(=O)N2CCOCC2)ccc1N	i
96	C=CCOn1c(C)c(C(C)=O)c2c3nonc3ccc21	i

# Following part:
entry	mol	Mtb H37Rv
97	CCS(=O)(=O)C(=C1NCCO1)S(=O)(=O)CC	i
98	O=[N+]([O-])c1ccccc1-c1ccc(-c2nn3c(-c4ccccc4)nnc3s2)o1	1%
99	Cc1c(OCC(=O)N2CCCCC2)ccc2c(-c3ccccc3)cc(=O)oc12	44%
100	O=C(Nc1ccccc1NC(=O)c1cccnc1)c1cccnc1	i
101	CCS(=O)(=O)c1nc2ccccc2n1CC(=O)N1CCOCC1	i
102	COC(=O)C(NC(=O)C(F)(F)F)C12CC3CC(CC(C3)C1)C2 (stereo not given)	i
103	CSc1nsc(SCc2ccc(Cl)cc2)n1	i
104	CCCC(=O)NC(=S)Nc1ccc(S(=O)(=O)NC2CCCCC2)cc1	i
105	COc1ccc(N(C2C=CS(=O)(=O)C2)S(=O)(=O)c2ccc([N+](=O)[O-])cc2)cc1 (stereo not given)	i
106	COc1ccc(-c2c(-c3ccc(OC)c(C)c3O)n[nH]c2C)cc1	?
107	FC(F)(F)c1ccc(Oc2ccccc2-c2ccccc2)nc1	i
108	COc1ccc(-c2noc(CSc3nnc(-c4ccccc4)n3C)n2)cc1	i

# Next part:
entry	mol	Mtb H37Rv
109	Cc1[nH]nc2c1C(c1ccccc1OC(C)C)C(C#N)=C(N)O2 (stereo not given)	3%
110	N#CC1=C(N)Oc2nc[nH]c(=O)c2C1c1ccncc1 (stereo not given)	i
111	O=S(=O)(c1cccc(F)c1)N1CCCCCC1	i
112	Cc1ccc(Nc2nc3c(c(=O)[nH]2)CCCC3)cc1	0%
113	CN(C)C(=O)N1CCN(c2ccc(Cl)cc2)CC1	i
114	COc1ccccc1C(=O)Nc1ccc(-c2cn3ccsc3n2)cc1	1%
115	CCc1ccc(OCC(=O)O/N=C(\N)c2cccnc2)cc1	10%
116	CCCCNc1nc(C)nc2sc3c(c12)CCCC3	4%
117	COCCCN1C(=O)C(O)=C(C(=O)c2cccs2)C1c1ccc(C(C)C)cc1 (stereo not given)	i
118	C=C(C)Cn1c(-c2ccc(N(C)C)cc2)nc2ccccc21	?
119	COc1ccc(N(CC(=O)Nc2cc(C)ccc2C)S(C)(=O)=O)cc1OC	i
120	O=C(c1csc2ccccc12)N1CCCCCC1	i

# Carrying on.
entry	mol	Mtb H37Rv
121	O=C(Nc1ccc(C(=O)O)cc1)/C(=C\c1ccc([N+](=O)[O-])cc1)NC(=O)c1ccco1	i
122	O=C(OCc1c(F)cccc1Cl)c1ccc(Br)o1	?
123	CCOC(=O)Cc1cc(=O)n2[nH]c(C)cc2n1	i
124	CCc1ccc(OC(=O)COc2ccc([N+](=O)[O-])cc2)cc1	i
125	CCCOc1ccc(C(=O)Nc2cc(-c3nc4cc(Cl)ccc4o3)ccc2C)cc1	i
126	COc1ccc(NC(=S)NCc2cc(C)n(C)n2)cc1OC	i
127	Cc1ccc(C(=O)Nc2ccon2)cc1S(=O)(=O)N1CCCCC1	i
128	O=S(=O)(NC(=NCc1ccccc1)c1ccccc1)c1ccccc1	i
129	Cc1cc2ncn(S(=O)(=O)N(C)C)c2cc1C	13%
130	CCc1ccc(-c2csc3ncn(Cc4ccc(C(=O)O)cc4)c(=O)c23)cc1	i
131	Cc1ccc(C(=O)Nc2ccc(I)cc2Cl)c(Cl)c1	3%
132	CCOC(=O)c1ccc(NC(=O)c2cc3c(n(-c4ccc(C)cc4)c2=O)CCCC3=O)cc1	i

# Next compounds
entry	mol	Mtb H37Rv
133	CC1CCN(C(=O)c2ccc3c(c2)OCCO3)CC1	i
134	CCCNc1nc(Nc2ccc(C)cc2)nc(OC)n1	1%
135	Cc1ccc(Cl)c(OCCN2CCNCC2)c1	i
136	C=CCn1c(SCc2ccccc2)nnc1-c1ccc2[nH]c(C)c(C)c2c1	1%
137	Cc1cc(/C=C(/C#N)c2cccc(F)c2)c(C)n1-c1cccnc1	23%
138	CCn1c(SCC(=O)Nc2c(C)cc(C)cc2C)nnc1-c1ccc(Br)cc1	i
139	CCCCc1ccc(NC(=O)Cn2cnc3sc(C(=O)OCC)c(C)c3c2=O)cc1	i
140	COc1ccc(C)cc1N(CC(=O)Nc1ccccc1C(=O)NC(C)C)S(=O)(=O)c1ccccc1	i
141	COC(=O)C1=CN(CCc2ccccc2)C=C(C(=O)OC)C1c1cccc(Cl)c1	i
142	C=CCOc1ccc(Br)cc1CO	i
143	Cc1ccc(C(=O)Nc2ccc(O)cc2C(=O)O)cc1C	25%
144	CC(Nc1ccccc1Br)c1cc(Cl)ccc1O (stereo not given)	i
145	CCCCC(=O)NC(=S)Nc1ccc(NC(=S)NC(=O)CC)cc1	46%
146	COc1cc(C)c(Cl)cc1S(=O)(=O)N1CCN(c2ccc(C)c(Cl)c2)CC1	1%

# These rows are one share of the data, so the mix of outcomes need not match the whole.
